Bioassay records as filed in PubChem BioAssay.
CDC25B-CDK2 inh = human CDC25B-CDK2/CyclinA binding inhibition; P30305+P24941; HTRF CDC25B-CDK2/CyclinA binding, anti-His/anti-Flag; hits give high values; z-score (concentration not given with the values); 94,000 tested, 0.72% active; AID 1259370;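 further: score is relative to mean and SD of negative controls; strong numbers were not always called active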
TAR Tat displ = HIV-1 TAR-Tat binding disruption; HIV-1 TAR RNA, Tat peptide displacement FRET; hits give high values; z-score (concentration not given with the values); 100,000 tested, 0.6% active;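 further: score is relative to mean and SD of negative controls; some compounds called inactive have numbers as strong as hits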
* hit, by the source's call; & = joins results of further samples.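 How the source made its calls: active means z-score from 3 up in half or more of its runs; inactive means the rest.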

`Cc1ccc(-c2cn3cccc(C)c3n2)cc1NS(=O)(=O)c1ccc(Br)cc1` gave CDC25B-CDK2 inh 0.46 and TAR Tat displ 0.34.
Screening O=c1c2c(-c3ccccc3)csc2ncn1CCCO returned CDC25B-CDK2 inh -0.82 and TAR Tat displ 1.5.
Screening COc1cc(Cl)c(C)cc1Nc1ncnc2c1nc1n2CCCC1 returned TAR Tat displ -0.15.
For COc1ccc(Br)c(C(=O)/C(C#N)=C/c2ccc(N(C)C)cc2)c1 the results were CDC25B-CDK2 inh -1.7.
Screening CC1(C)CC(=O)C2=C(C1)Nc1nc(SCc3ccccc3)[nH]c(=O)c1C2c1ccc2c(c1)OCO2 (configuration not stated) returned CDC25B-CDK2 inh -0.29 and TAR Tat displ -1.9.
For O=[N+]([O-])c1ccc(/C=N/Nc2ncnc3c2cnn3-c2ccccc2)cc1 the results were CDC25B-CDK2 inh -0.93.
Screening COc1ccccc1Nc1ncc(-c2cccs2)s1 returned CDC25B-CDK2 inh -2.2 and TAR Tat displ -5.5.
For COc1ccc(N2C(=O)c3cccnc3C2Nc2ccccc2F)cc1 (configuration not stated) the results were TAR Tat displ 0.91.
CCCN(CCC)C(=O)Cn1c(=O)oc2cc(S(=O)(=O)N3CC(C)CC(C)C3)ccc21 (configuration not stated) was read as CDC25B-CDK2 inh -1.9 and TAR Tat displ -0.51.
`Cc1ccc(Nc2nc(N3CCN(C)CC3)nc3c2cnn3C)cc1Cl` gave TAR Tat displ 1.2.
Screening Cn1c(=O)c2c(c3ccccc31)OC(=O)CC2c1ccccc1F (configuration not stated) returned CDC25B-CDK2 inh -2.1 and TAR Tat displ 0.53.
`C=C(C)Cn1c(COc2ccccc2)nc2ccccc21` gave CDC25B-CDK2 inh 1.1 and TAR Tat displ 0.13.
For C=CCOc1ccc(C2N3CC4(C)CN2CC(CCCC)(C3)C4=O)cc1 (configuration not stated) the results were CDC25B-CDK2 inh -1.7 and TAR Tat displ -0.81.
`Cc1cc(C)c2c(CC(=O)Nc3nnc(CC(C)C)s3)coc2c1` gave CDC25B-CDK2 inh -1.1 and TAR Tat displ 1.9.
Screening CCOC(=O)c1nn(-c2ccccc2)c(=O)cc1NC1CCCC1 returned TAR Tat displ 2.1.

The final 4 entries of the section before are carried over, then new ones follow:
`C=C(C)Cn1c(COc2ccccc2)nc2ccccc21` gave CDC25B-CDK2 inh 1.1 and TAR Tat displ 0.13.
For C=CCOc1ccc(C2N3CC4(C)CN2CC(CCCC)(C3)C4=O)cc1 (configuration not stated) the results were CDC25B-CDK2 inh -1.7 and TAR Tat displ -0.81.
`Cc1cc(C)c2c(CC(=O)Nc3nnc(CC(C)C)s3)coc2c1` gave CDC25B-CDK2 inh -1.1 and TAR Tat displ 1.9.
Screening CCOC(=O)c1nn(-c2ccccc2)c(=O)cc1NC1CCCC1 returned TAR Tat displ 2.1.
`Cc1ccc(-c2nc(Cn3c(C)nc4onc(C)c4c3=O)c(C)o2)cc1` gave TAR Tat displ 1.3.
CCOC(=O)c1c(NC(=O)Nc2ccc(F)cc2)sc2c1CCN(C(=O)OCC)C2 was read as CDC25B-CDK2 inh -0.39 and TAR Tat displ 0.1.
Screening Cc1cccc(NS(=O)(=O)c2ccc3c(c2)CCCC(=O)N3)n1 returned TAR Tat displ -0.08.
CCCCNc1nc(Nc2ccc(F)cc2)c2cnn(C)c2n1 was read as TAR Tat displ -0.42.
Cc1c(C(=O)NC2CCC(C)CC2)oc2ccc3c(c12)C(O)CC(C)(C)O3 (configuration not stated) was read as CDC25B-CDK2 inh -0.27 and TAR Tat displ 0.66.
For CC(C)c1nc(N2CCOCC2)c(C#N)c2c1COC(C)(C)C2 the results were CDC25B-CDK2 inh -2 and TAR Tat displ 1.8.
For O=c1c(-c2ccc(Cl)cc2)c(N2CCN(c3ccccc3)CC2)c1=O the results were TAR Tat displ 0.1.
CC1CCCN(c2nnc(NC(=O)Nc3cccc(Br)c3)s2)C1 (configuration not stated) was read as CDC25B-CDK2 inh -1.7 and TAR Tat displ 0.27.
Screening CN1c2ccc(Cl)cc2-c2nc(SCC(=O)NCc3ccc(F)cc3)ncc2S1(=O)=O returned TAR Tat displ -0.13.
`Cc1cc(S(=O)(=O)[C@H]2CS(=O)(=O)C[C@@H]2NC2CCCC2)ccc1F` gave CDC25B-CDK2 inh -1.8 and TAR Tat displ 2.7.
`Cc1ccc(Cl)cc1Nc1c(C)c(C)nc2ncnn12` gave TAR Tat displ 0.58.
Screening c1nc(N2CCCCC2)c2nc3n(c2n1)CCCCC3 returned TAR Tat displ -0.3.
CCOc1ncnc2c1sc1nc(N3CCOCC3)c3c(c12)CCCC3 was read as CDC25B-CDK2 inh -0.02 and TAR Tat displ -0.15.
`COc1ccc(NS(=O)(=O)c2ccc(C)c(Cl)c2)cn1` gave CDC25B-CDK2 inh -2.
For CCc1ccc(C(=O)CC2(O)C(=O)N(CCc3ccccc3)c3ccccc32)cc1 (configuration not stated) the results were CDC25B-CDK2 inh 5.3.
COc1ccccc1NC(=O)c1c(NC(=O)c2ccco2)sc2c1CCC2 was read as CDC25B-CDK2 inh -0.7 and TAR Tat displ -0.78.
Screening Cc1cc(S(=O)(=O)[C@H]2CS(=O)(=O)C[C@@H]2N2CCN(c3ccccc3)CC2)ccc1F returned CDC25B-CDK2 inh -0.64 and TAR Tat displ 2.6.
O=C(c1ccc(-n2ccc3ccccc32)s1)N1CCN(C2CCCCC2)CC1 was read as TAR Tat displ -0.55.
O=C(Nc1cccc(F)c1)N1CCC2(CC1)Nc1cc(F)ccc1-n1cccc12 was read as TAR Tat displ -0.63.
Screening CSc1nn(-c2ccccc2)c(N)c1S(=O)(=O)c1ccc(Cl)cc1 returned CDC25B-CDK2 inh 0.06.
Cc1ccc(-c2nnc3c4ccccc4c(C)nn23)cc1S(=O)(=O)N1CCN(C)CC1 was read as CDC25B-CDK2 inh -1.8 and TAR Tat displ 0.79.
`O=C(CC1(O)C(=O)Nc2ccc(Cl)cc21)c1ccccc1Br` (configuration not stated) gave TAR Tat displ 1.1.
For CCC(Sc1nc2c(c(=O)[nH]1)CCC2)C(=O)Nc1ccccc1F (configuration not stated) the results were CDC25B-CDK2 inh 0.15 and TAR Tat displ 1.4.
CC(C)CCNC(=O)CCC(=O)n1ncc2ccc(Cl)cc21 was read as CDC25B-CDK2 inh -1.4 and TAR Tat displ 2.
O=C(CCCN1C(=O)CSc2ncccc21)NC1CCCC1 was read as CDC25B-CDK2 inh -1.7 and TAR Tat displ -1.7.
`O=C(CSc1nc2[nH]ncc2c(=O)n1-c1ccc(F)c(Cl)c1)Nc1ccc2c(c1)OCCO2` gave CDC25B-CDK2 inh -2.2.
For CC(C)(C)NC(=O)C1C(=O)NC2(C)CC1c1ccccc1O2 (configuration not stated) the results were CDC25B-CDK2 inh -1.4.
Screening Cn1c(=O)c2c(SCC(=O)Nc3ccc(F)cc3F)nc(C3CCCC3)nc2n(C)c1=O returned TAR Tat displ 0.23.
`Cc1cccc(N2CN(Cc3ccco3)CNC2=S)c1` gave CDC25B-CDK2 inh -0.5.
CC(=O)N1c2ccccc2CC1C(=O)NC1CCCc2ccccc21 (configuration not stated) was read as CDC25B-CDK2 inh -0.56 and TAR Tat displ 0.04.
COc1ccc(C(=O)c2cnc3cc4c(cc3c2N2CCCCC2)OCO4)cc1 was read as CDC25B-CDK2 inh 0.82 and TAR Tat displ -0.48.
Screening CCC1CN(C(=O)Nc2ccc(Br)cc2)c2ccccc2S1 (configuration not stated) returned TAR Tat displ 1.8.
Screening CC1CN(C(=O)CC#N)CC(C)O1 (configuration not stated) returned CDC25B-CDK2 inh -3.6.
Cc1nc(N2CCN(Cc3ccc4c(c3)OCO4)CC2)c2c3c(sc2n1)CCCC3 was read as TAR Tat displ 1.3.
Nc1ccc(SCc2cc(=O)n3ccccc3n2)cc1 was read as CDC25B-CDK2 inh -2.2 and TAR Tat displ -1.1.
COc1cccc(-c2coc3cc4oc(=O)cc(-c5ccccc5)c4cc23)c1 was read as CDC25B-CDK2 inh -1.5.
COCc1cc(C)nc2sc(C(=O)OC)c(N)c12 was read as CDC25B-CDK2 inh -0.8 and TAR Tat displ 0.69.
Screening CCOC(=O)C1C(=O)CC(C)(O)C(C(=O)OCC)C1c1ccc(Br)s1 (configuration not stated) returned CDC25B-CDK2 inh -1.9.
`COc1cccc(Nc2ncnc3onc(C)c23)c1` gave TAR Tat displ -2.2.
`Nc1ncnc2nc(N3CCN(C(=O)c4ccccc4)CC3)[nH]c12` gave CDC25B-CDK2 inh -1.6 and TAR Tat displ 0.84.
COc1ccc(C(=O)CSc2nnc(-c3cc(C)on3)o2)cc1 was read as CDC25B-CDK2 inh -5.9 and TAR Tat displ -0.7.
O=C(CCC(=O)N1CCOc2ccccc21)Nc1cc(F)ccc1F was read as CDC25B-CDK2 inh -0.34 and TAR Tat displ 0.36.
CNC(=O)c1[nH]nc2c1CCc1ccccc1-2 was read as TAR Tat displ 0.92.
For CN1CCN(Cc2c(O)ccc3c(=O)c(-c4ccc(Cl)cc4)coc23)CC1 the results were CDC25B-CDK2 inh -0.7 and TAR Tat displ 0.07.
`Clc1ccc(-c2nc3sc4nc5ccccc5nc4n3n2)c(Cl)c1` gave CDC25B-CDK2 inh -2.4.

Grouped by structure: those above with a cyano group.
For COc1ccc(Br)c(C(=O)/C(C#N)=C/c2ccc(N(C)C)cc2)c1 the results were CDC25B-CDK2 inh -1.7.
For CC(C)c1nc(N2CCOCC2)c(C#N)c2c1COC(C)(C)C2 the results were CDC25B-CDK2 inh -2 and TAR Tat displ 1.8.
Screening CC1CN(C(=O)CC#N)CC(C)O1 (configuration not stated) returned CDC25B-CDK2 inh -3.6.

(listing goes on)
Screening Cc1ccc2oc(-c3ccc(C)c(NC(=O)c4ccc([N+](=O)[O-])o4)c3)nc2c1 returned CDC25B-CDK2 inh -0.01 and TAR Tat displ -0.91.
Screening Cc1nc2nc(C)c(CCC(=O)NC3CCCCC3)c(C)n2n1 returned CDC25B-CDK2 inh -2.1 and TAR Tat displ -0.31.
CCOC(=O)c1c(C)oc2ccc(OCc3ccc(C(=O)OC)cc3)cc12 was read as CDC25B-CDK2 inh -1.2 and TAR Tat displ 0.15.
Screening CCc1nc(N)nc(N)c1-c1ccc(Cl)cc1 returned TAR Tat displ 0.76.
N#CC1=C(N)Oc2cc(O)ccc2C1c1ccccc1Cl (configuration not stated) was read as CDC25B-CDK2 inh -0.35 and TAR Tat displ -5.9.
Screening O=C(Nc1ccc(F)cc1)N1CCC(n2c(=O)[nH]c3ccccc32)CC1 returned CDC25B-CDK2 inh -3.9 and TAR Tat displ -0.28.
O=C(O)CCCCn1c(SCc2ccccc2Cl)nc2ccsc2c1=O was read as TAR Tat displ 1.2.
Screening CCCCCCn1c(CN2CCN(c3ccccc3)CC2)nc2c1c(=O)n(C)c(=O)n2C returned CDC25B-CDK2 inh -1.4 and TAR Tat displ 0.63.
O=C(CSc1nccn1Cc1ccccc1)NCc1ccc2c(c1)OCO2 was read as TAR Tat displ 0.67.
Screening Cc1ccccc1CNCc1cccn1-c1nnc(N2CCOCC2)s1 returned TAR Tat displ 1.6.
`COC(=O)c1cnn(-c2ccc(F)cc2)c1-n1cccc1` gave CDC25B-CDK2 inh 1.9 and TAR Tat displ 0.79.
For COC(=O)C(C)(N)Cc1ccc(O)cc1 (configuration not stated) the results were CDC25B-CDK2 inh -1.5&-0.48.
Screening Cc1nc(C)c(-c2ccc(SCC(=O)Nc3ccc4c(c3)OCO4)nn2)s1 returned TAR Tat displ 2.1.
Screening CCCc1nnc(NC(=O)c2snnc2C)s1 returned CDC25B-CDK2 inh -1.8 and TAR Tat displ -1.6.
For Cc1nc(-c2csc(S(=O)(=O)NCc3ccc(F)cc3)c2)no1 the results were TAR Tat displ 1.4.
For Cc1cc(=O)n2c(n1)NC(Nc1ccc(F)cc1)=NC2c1cccs1 (configuration not stated) the results were CDC25B-CDK2 inh -1.5 and TAR Tat displ 0.57.
For O=C(Nc1ccc2c(c1)OCO2)C1CCCN(c2nnc(-n3cccc3)s2)C1 (configuration not stated) the results were TAR Tat displ 0.93.
Screening O=C(O)CCc1nnc2n(CCc3ccccc3)c(=O)c3ccccc3n12 returned CDC25B-CDK2 inh -0.22 and TAR Tat displ -0.57.
Screening COc1ccc(CN2C(=O)c3cccnc3C2O)cc1 (configuration not stated) returned CDC25B-CDK2 inh -1.1 and TAR Tat displ -0.63.
Cc1cc(C2CCCN2S(=O)(=O)c2ccc(C3CCCCC3)cc2)on1 (configuration not stated) was read as TAR Tat displ 1.
For O=C(Cn1cnc([N+](=O)[O-])n1)Nc1ccc(Cl)cc1 the results were CDC25B-CDK2 inh -0.25 and TAR Tat displ 1.
Cc1cc(C)[nH]c(=S)n1 was read as CDC25B-CDK2 inh -0.58.
`COc1ccc(-c2noc(CSc3nc4ccc(C)cc4[nH]3)n2)cc1` gave CDC25B-CDK2 inh 0.75 and TAR Tat displ -1.3.
O=C(Cn1c(=O)c2cccn2c2ccc(F)cc21)N1CCN(c2ccccn2)CC1 was read as TAR Tat displ 1.6.
Cc1ccc(NS(=O)(=O)c2cc3[nH]c4c(c3cc2C)C(=O)CCC4)c(C)c1 was read as TAR Tat displ 1.3.
Screening CCC(=O)OCCNc1cc(N2CCCC(C)C2)c2noc3c2c1C(=O)c1ccccc1-3 (configuration not stated) returned CDC25B-CDK2 inh -0.5 and TAR Tat displ 1.3.
`CN1CCN(C(=O)C2CCC(CNS(=O)(=O)c3cccc4cccnc34)CC2)CC1` (configuration not stated) gave CDC25B-CDK2 inh -1.6 and TAR Tat displ 2.
Screening Cc1cc(N2CCCCC2)nc(N2CCN(S(=O)(=O)c3ccc4nc(C)sc4c3)CC2)n1 returned TAR Tat displ 1.1.

3 entries from above, ordered by molecular weight, high to low:
Screening Cc1cc(N2CCCCC2)nc(N2CCN(S(=O)(=O)c3ccc4nc(C)sc4c3)CC2)n1 returned TAR Tat displ 1.1.
O=C(Cn1c(=O)c2cccn2c2ccc(F)cc21)N1CCN(c2ccccn2)CC1 was read as TAR Tat displ 1.6.
Screening COc1ccc(CN2C(=O)c3cccnc3C2O)cc1 (configuration not stated) returned CDC25B-CDK2 inh -1.1 and TAR Tat displ -0.63.
